Bioassay records from PubChem BioAssay.
ALR inh – human ALR oxidase inhibition via reduced H2O2. P55789. purified ALR, DTT oxidation, H2O2 HRP-luminol luminescence. inhibition, % (concentration not given with the values). 3.8% of 290,000 active. AID 485317;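 active = mean and each replicate at 75% or more; inconclusive = only one of the two met; inactive = neither met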;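 also: stock transfer was 7.5 nL into about 7.5 µL; 0% = neutral wells and 100% = wells with inactivated enzyme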
Target sequence (P55789 whole entry, looked up): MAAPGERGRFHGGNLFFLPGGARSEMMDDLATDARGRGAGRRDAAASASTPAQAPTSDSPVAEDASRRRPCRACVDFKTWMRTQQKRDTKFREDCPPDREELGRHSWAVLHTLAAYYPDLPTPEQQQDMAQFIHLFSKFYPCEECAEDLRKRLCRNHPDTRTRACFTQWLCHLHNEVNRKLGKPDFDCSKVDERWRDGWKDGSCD
FGF22 binding – shifts melting point of recombinant human FGF22; calls only at 9.99 µM; recombinant FGF22 thermal shift, SYPRO orange fluorescence; percent of sucrose octasulfate shift, DMSO zero; 1.5% of 340,000 active; AID 651658; Q9HCT0;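 active = melting point raised past a set limit in the mean and every replicate; inconclusive = no clear call; three in four hits are not shown here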
Target sequence (Q9HCT0 whole entry, looked up): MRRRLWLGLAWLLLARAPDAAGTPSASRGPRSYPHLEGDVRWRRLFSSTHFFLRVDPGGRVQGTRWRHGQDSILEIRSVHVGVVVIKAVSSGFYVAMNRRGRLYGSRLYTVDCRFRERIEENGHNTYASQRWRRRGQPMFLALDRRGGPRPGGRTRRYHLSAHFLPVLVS
HNF4A DNA FP – change in binding of human HNF4 alpha to DNA. P41235. HNF4a-FITC DNA binding, fluorescence polarization, 1 h. activity change, % at 10 µM. 0.3% of 360,000 active; in the data active = activity change above about 30%, passing the limit was not always enough;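 also: controls were the assay level and a saturating level of protein; the project sought stronger binding though the title names inhibitors; some compounds called inactive have numbers as strong as hits; positive values seem to mean higher polarization but the record does not say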
Target sequence (P41235 whole entry, looked up): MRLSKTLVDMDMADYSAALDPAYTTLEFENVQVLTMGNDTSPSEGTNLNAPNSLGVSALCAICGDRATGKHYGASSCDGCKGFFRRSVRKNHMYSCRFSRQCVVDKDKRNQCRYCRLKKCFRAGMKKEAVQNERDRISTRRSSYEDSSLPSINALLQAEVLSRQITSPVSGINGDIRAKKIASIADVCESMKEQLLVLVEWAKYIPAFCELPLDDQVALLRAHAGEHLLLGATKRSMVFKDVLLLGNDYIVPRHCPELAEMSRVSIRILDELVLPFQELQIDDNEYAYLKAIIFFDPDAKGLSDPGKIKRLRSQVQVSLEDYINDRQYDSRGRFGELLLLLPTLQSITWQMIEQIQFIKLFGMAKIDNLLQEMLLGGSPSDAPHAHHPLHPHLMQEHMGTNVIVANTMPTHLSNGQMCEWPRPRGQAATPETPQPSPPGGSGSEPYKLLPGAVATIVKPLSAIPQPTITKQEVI
Vif TR-FRET – inhibitors of Vif binding to APOBEC3G peptide, primary screen, biochemical, TR-FRET, GST-Vif 1-94, biotin-A3G peptide, dose response retest (AID 1117319). 0.57% of 260,000 active. inhibition, %; hits with a dose series show IC50 in µM. TR-FRET GST-Vif / biotin-A3G peptide binding; higher % means a stronger effect; test concentration not given here; strong numbers were not always called active;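 active = above the screen mean plus three standard deviations and confirmed in dose response; inconclusive = results disagree or hit not tested in dose response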;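 also: Vif residues 1-94 fused to GST binding biotinylated APOBEC3G peptide 110-148; 0% = full assay without inhibitor and 100% = GST in place of GST-Vif; retest series ran down from 100 µM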
MLL AF4-AF9 inh – blocks AF4 peptide binding to human AF9. 0.47% of 350,000 active. AlphaScreen, biotin-AF4 peptide binding to FLAG-AF9. inhibition, % at 10 µM. P42568;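 active = every replicate reaching a set inhibition limit, whatever the replicate mean, cut at about 25% in these data; inconclusive = mean inhibition reaches that limit but some replicates miss it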;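 also: 0% = plate neutral control median and 100% = total signal loss; the record names both 10 and 1 µM as test concentration; the first replicate is given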
Ecoli rRNA inh – inhibitors of bacterial rRNA selective over humanized ribosomes | E. coli WT GFP vs humanized-ribosome RFP mutants, fluorescence, 24 h; hits give low values; DMSO median 0, no signal -100 | GFP signal change (wild-type ribosome), % (no concentration beside the values) | 1.6% of 350,000 active | AID 720706;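 active = significant combined selectivity score with lowered wild-type GFP, culture density cut under 30%, mutant RFP and density less affected; inactive = any of these conditions unmet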; also: one replicate is shown; some compounds called inactive have numbers as strong as hits
Ecoli growth – E. coli growth inhibition. Escherichia coli growth, OD600, 23 h; hits give low values. OD600 absorbance (test concentration not listed). 0.21% of 330,000 active. AID 1053175;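 active = OD600 absorbance below the run mean of sample wells minus 3.6 SD, in any replicate, cut at about 0.56 in these data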;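 also: stock transfer was 300 nL into about 60 µL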
Ecoli rRNA inh OD600 – second read-out of Ecoli rRNA inh, no call of its own (marks repeat the call); OD600 change, %; measured here: OD600 growth;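 optical density of the mix in the first replicate; 0 = DMSO median and -100 = no signal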
Ecoli rRNA inh RFP – also measured in Ecoli rRNA inh; calls as there; RFP signal change, %; measured here: RFP humanized mutant strains;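 first replicate; 0 = DMSO median and -100 = no signal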
* marks the source's active call; other numbers are inactive results; i = inactive; u = inconclusive; x = no result given. This is a subset. The share of hits here may be higher or lower than overall.

SMILES | ALR inh | FGF22 binding | HNF4A DNA FP | Vif TR-FRET | MLL AF4-AF9 inh | Ecoli rRNA inh | Ecoli rRNA inh OD600 | Ecoli rRNA inh RFP | Ecoli growth
CCOC(=O)C1CCN(C(=O)c2cccc(N3C(=O)NC4CC3(C)Oc3ccc(C)cc34)c2)CC1 (configuration not stated) | 5.2 | i | 3.4 | x | -0.7 | 6.1 | 0.2 | 7.0 | 0.658
C[C@@H]1CN([C@@H](C)CO)C(=O)c2cc(C3=CCCCC3)cnc2O[C@@H]1CN(C)Cc1ccncc1 | x | i | x | x | -0.3 | -0.7 | 0.8 | 0.2 | x
COc1ccc([C@H]2C[C@H](O)[C@@H](n3cc(COC(=O)c4ccccc4)nn3)CN2CC2CCCCC2)cc1 | x | i | 1.8 | -8.1% | 3.1 | 8.6 | 6.5 | -0.2 | x
O=C1N=C(N2CCOCC2)S/C1=C\c1ccc(OS(=O)(=O)c2ccccc2)cc1 | -10.5 | i | 1.3 | x | 6.4 | x | x | x | 0.707
Cc1cc(C)n(CC(=O)NNC(=O)CC(C)c2ccccc2)n1 (configuration not stated) | -3.8 | i | 4.6 | -1.3% | -0.1 | 11.3 | 8.9 | 1.8 | 0.678
O=C1NCCOC(=O)[C@H](Cc2ccc(F)cc2)C/C=C\C[C@@H]1CC(=O)N(CCO)Cc1ccccc1 | 4.8 | i | 0.2 | x | -3.3 | 2.5 | 8.0 | -2.1 | x
COc1ccc(N(C(C)C(=O)N2CCCC2)S(C)(=O)=O)cc1 (configuration not stated) | 1.4 | i | -2.0 | 4.0% | -1.6 | 21.8 | 12.0 | 3.4 | 0.7
Cc1c(C(=O)NN)nc2ccccn12 | 11.8 | i | -4.5 | 24.1% | 1.6 | 0.1 | 6.1 | -3.3 | 0.693
CS(=O)(=O)Nc1ccc(C2=NN(C(=O)c3ccco3)C(c3cccc(F)c3)C2)cc1 (configuration not stated) | -7.7 | i | 0.4 | 4.6% | 0.0 | 2.9 | 0.7 | -1.9 | 0.683
CSc1cccc(NC(=S)N(CCN(C)C)C(C)c2ccncc2)c1 (configuration not stated) | -5.0 | i | 0.0 | 14.2% | -0.3 | 9.3 | 0.0 | -0.9 | 0.66
Oc1c(C(c2cccs2)N2CCN(c3ccc(F)cc3)CC2)sc2ncnn12 (configuration not stated) | 95.5* | i | -0.2 | -3.2% | -0.9 | 4.9 | -11.4 | -0.4 | 0.705
O=C(NC1CC1)c1ccc(CS(=O)c2ccc(Br)cc2)o1 (configuration not stated) | -2.8 | i | -0.5 | x | -2.6 | -0.3 | 2.1 | -4.6 | 0.672

Looked up by structure from above, five records:
SMILES | ALR inh | FGF22 binding | HNF4A DNA FP | Vif TR-FRET | MLL AF4-AF9 inh | Ecoli rRNA inh | Ecoli rRNA inh OD600 | Ecoli rRNA inh RFP | Ecoli growth
O=C1NCCOC(=O)[C@H](Cc2ccc(F)cc2)C/C=C\C[C@@H]1CC(=O)N(CCO)Cc1ccccc1 | 4.8 | i | 0.2 | x | -3.3 | 2.5 | 8.0 | -2.1 | x
C[C@@H]1CN([C@@H](C)CO)C(=O)c2cc(C3=CCCCC3)cnc2O[C@@H]1CN(C)Cc1ccncc1 | x | i | x | x | -0.3 | -0.7 | 0.8 | 0.2 | x
Oc1c(C(c2cccs2)N2CCN(c3ccc(F)cc3)CC2)sc2ncnn12 (configuration not stated) | 95.5* | i | -0.2 | -3.2% | -0.9 | 4.9 | -11.4 | -0.4 | 0.705
O=C1N=C(N2CCOCC2)S/C1=C\c1ccc(OS(=O)(=O)c2ccccc2)cc1 | -10.5 | i | 1.3 | x | 6.4 | x | x | x | 0.707
O=C(NC1CC1)c1ccc(CS(=O)c2ccc(Br)cc2)o1 (configuration not stated) | -2.8 | i | -0.5 | x | -2.6 | -0.3 | 2.1 | -4.6 | 0.672

(continued)
SMILES | ALR inh | FGF22 binding | HNF4A DNA FP | Vif TR-FRET | MLL AF4-AF9 inh | Ecoli rRNA inh | Ecoli rRNA inh OD600 | Ecoli rRNA inh RFP | Ecoli growth
COC(=O)[C@]12C[C@H](CC(=O)NCc3cccc(C(F)(F)F)c3)C(=O)N(Cc3ccccc3)C1=C[C@H](C(C)C)O[C@@H]2C1CC1 | x | i | x | x | -0.8 | 18.6 | 18.1 | 3.1 | x
COc1ccc(OC)c(NC(=O)CCNS(=O)(=O)c2cccc3nsnc23)c1 | -0.2 | i | -0.4 | x | -1.4 | -0.4 | -1.7 | -4.6 | 0.667
COc1ccc(S(=O)(=O)NC2CC(C)(C)NC(C)(C)C2)cc1 | -5.2 | i | 4.4 | -0.5% | -9.1 | 9.4 | 11.3 | 2.8 | 0.726
CCOC(=O)N1CCN(S(=O)(=O)c2ccc(C(=O)N(CCN(C)C)c3nc4ccc(Cl)cc4s3)cc2)CC1 | -0.5 | i | 0.5 | x | -0.6 | 9.9 | 4.3 | 0.7 | 0.653
COCC(=O)Nc1ccc2c(c1)OC[C@H](C)N(C(C)=O)C[C@@H](C)[C@H](OC)CN(C)C2=O | x | i | x | x | -0.6 | 0.0 | 1.9 | 0.9 | x
COc1cccc(NC(=O)CN(C)C(=O)c2ccc(S(=O)(=O)Nc3ccccc3F)cc2)c1 | x | i | 2.9 | 1.0% | 1.3 | 4.0 | -1.8 | 0.8 | 0.677
CC(C)c1ccc(CCNC(=O)CSC(=S)N2CCCC2)cc1 | 33.1 | i | 1.7 | -6.9% | -2.4 | -20.1 | -38.1 | 3.6 | 0.634
CCS(=O)(=O)c1nn2c(N)c(/C=C3/C=CC(=O)C(OC)=C3)c(=O)nc2s1 | 99.9* | x | 31.4 | 11.0% | x | x | x | x | 0.689
CC(C(c1cccs1)c1c(N)n(C)c(=O)n(C)c1=O)[N+](=O)[O-] (configuration not stated) | x | i | -1.3 | -5.2% | 0.2 | x | x | x | 0.614
COC(=O)c1sccc1NC(=O)Nc1ccc(F)cc1F | 17.7 | i | -0.4 | -0.1% | -2.3 | 8.9 | 14.2 | 1.8 | 0.711
Cc1oc(C(C)(C)C)cc1-c1cc(NC(=O)c2ccc([N+](=O)[O-])cc2)n[nH]1 | -27.8 | i | 0.3 | -6.2% | 0.8 | -7.3 | -12.8 | -5.5 | 0.698
Cc1ccc(NCCCn2cnc3c(OCc4ccccc4)ncnc32)cc1C | x | i | 2.5 | 0.3% | u | -21.4* | -8.6* | 0.2* | x
CCc1ccc(NC(=O)C(CC)Sc2nc3ccsc3c(=O)n2CCC(=O)O)cc1 (configuration not stated) | 0.7 | i | -0.2 | -6.1% | -2.9 | -3.4 | 2.3 | -2.2 | 0.709
O=C(C[C@@H]1CC[C@H]2[C@@H](COC[C@H](O)CN2C(=O)Nc2ccc(Cl)cc2)O1)N1CCCCC1 | x | i | x | x | 1.4 | -47.1 | -51.0 | -9.3 | x
CN(C)N1C(N)=C(C#N)C(c2ccccc2F)C2=C1CC(C)(C)CC2=O (configuration not stated) | -6.2 | i | -2.7 | -2.6% | 3.1 | 1.9 | -8.7 | -0.7 | 0.66
COCCNC(=O)c1cc2c(Br)ccc(Br)c2nc1N | x | i | -2.6 | x | 1.8 | -1.0 | 5.5 | 1.7 | x
CCc1ccc(CNC(=O)CCCn2nc(C)n3ccnc3c2=O)cc1 | -4.6 | i | 0.8 | x | -8.6 | 0.7 | 5.0 | -0.8 | 0.778
CO[C@H]1CN(C)C(=O)c2cc(NC(=O)c3ccccc3)ccc2OC[C@@H](C)N(C)C[C@@H]1C | x | i | x | x | -2.2 | 2.3 | 2.9 | -2.9 | x
C=CCn1c(SCC(=O)NC2CC2)nnc1C1CC1 | -6.9 | i | -3.7 | -3.8% | -1.2 | 12.1 | 16.7 | 1.5 | 0.693
C#CCOCCOCCOCCNc1nc(N2CCN(C(=O)[C@H](CCC(=O)O)n3cc(C(N)[C@H](C)CC)nn3)CC2)nc(N2CCN(C(=O)[C@H](Cc3ccc(O)cc3)n3cc(C(N)[C@H](C)CC)nn3)CC2)n1 (some centres not stated) | -13.6 | x | 2.0 | 0.1% | x | x | x | x | 0.805
CN(c1ccccc1)c1nc(N)c([N+](=O)[O-])c(N2CCCCCC2)n1 | 1.6 | i | 4.1 | 4.2% | 11.0 | -38.0 | -33.7 | -1.2 | 0.719
COc1ccc(CC(NC(C)=O)C(=O)NC2CCN(c3c(Cc4ccccc4)c(C)nc4ncnn34)CC2)c(OC)c1 (configuration not stated) | -0.8 | x | -0.3 | -4.7% | 0.4 | -11.5 | -11.8 | -2.8 | 0.653
O=C(Nc1nc2ccccc2n1Cc1ccccc1)c1ccc(COc2ccccc2[N+](=O)[O-])o1 | -2.2 | i | -0.7 | 2.7% | -62.5 | 4.3 | 8.9 | 11.5 | 0.733
COc1cccc(-c2cc(C(=O)Nc3cccnc3Cl)no2)c1 | -2.5 | i | 4.5 | x | -1.6 | -51.3 | -74.9 | -13.7 | 0.664
C[C@H]1CC[C@@]2(O[C@@H](CCO)C[C@@H](O)[C@@H]2O)O1 | -5.1 | i | -0.1 | -5.4% | x | 12.3 | 11.0 | -0.1 | x
O=C(NCc1ccccn1)NC12CC3CC(CC(C3)C1)C2 | x | x | 0.4 | -2.0% | x | x | x | x | 0.736
O=C(C1=COCCO1)N(Cc1nnc(-c2ccc(Cl)cc2)o1)C1CC1 | -11.7 | i | -2.6 | -6.0% | 3.9 | 8.8 | 4.4 | -2.6 | 0.686
Fc1ccc(CSc2ncnc3scc(-c4ccccc4)c23)cc1 | -9.5 | i | -0.5 | 13.7% | -4.7 | x | x | x | 0.695
COc1ccccc1N(CC(=O)NC1CCCC1)C(=O)c1csnn1 | x | x | 5.9 | -0.6% | x | x | x | x | 0.691
COc1ccc(N2CCN(C(c3ccc4ncccc4c3)c3nnnn3C(C)C)CC2)cc1 (configuration not stated) | 76.3* | i | -0.8 | -8.8% | 12.2 | 4.3 | 6.1 | 15.8 | 0.684
O=S(=O)(Nc1ccc2c(c1)OCO2)c1ccc(Cl)cc1F | 34.9 | i | 0.4 | x | 0.6 | -15.2 | -16.1 | -0.7 | 0.64
CC1CC(N(C(=O)c2ccco2)c2ccccc2)c2ccccc2N1C(=O)c1ccco1 (configuration not stated) | -16.6 | x | 0.0 | 4.4% | x | x | x | x | 0.713
COC(=O)c1cc(OC)c(OC)cc1NC(=O)c1c(-c2ccccc2)noc1C | -12.7 | i | -1.9 | 6.8% | 11.2 | -18.4 | -19.0 | 7.5 | 0.699
O=C(Nc1ccccc1)C(Cl)C(=O)c1ccccc1 (configuration not stated) | 15.2 | i | 2.4 | 18.9% | 2.7 | 5.7 | 2.6 | 5.0 | 0.527
NS(=O)(=O)c1ccc(CNC(=O)NC23CC4CC(CC(C4)C2)C3)cc1 | 3.1 | i | -1.4 | 1.8% | 3.6 | -6.0 | -10.3 | -3.4 | 0.747
CCOC(=O)c1cnn(-c2ncnc3sc4c(c23)CCC4)c1N | -2.2 | i | 0.9 | u | 1.6 | 1.8 | 0.4 | 1.5 | 0.67
CC(O)C(NS(=O)(=O)c1ccc(Cl)cc1)C(=O)OCC(=O)Nc1cccnc1Cl (configuration not stated) | -14.7 | x | -0.5 | x | x | x | x | x | 0.679
O=C(Cc1cccc(NC(=O)C2CCN(C(=O)C3CCCCC3)CC2)c1)Nc1cccc(C(=O)N2CCCCC2)c1 | x | x | 1.0 | x | 0.9 | 1.2 | -6.4 | -1.5 | 0.679
Cc1oc2c(c1C(=O)Nc1cccc(C(=O)O)c1)CCCC2 | 3.2 | x | -0.1 | 3.9% | x | x | x | x | 0.722
